Screening results (PubChem)
CtBP-E1A inh: inhibitors of CtBP/E1A interaction | activity change, % (concentration not given with the values) | AID 651724 | AlphaScreen GST-E1A/His-CtBP binding, 1536-well; active compounds read low; control for the full effect not named in the record | 0.49% of 340,000 active; in the data active means activity change below about -65%; inconclusive means about -30% to -65%; inactive means above about -30%; note: % is set by controls: 0 for no effect and ±100 for the full control effect
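Homogeneous bead-based format: GST-tagged E1A captured on glutathione donor beads, His-tagged CtBP on nickel acceptor beads; compounds precede bead addition by 2 h at 37 °C.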
TRPML1 ag: agonists of human TRPML1 channel. TRPML1-expressing cells, Ca2+ dye fluorescence, FDSS; host cell line not named in the record; reference of the full effect not given here. activation, % (concentration not given with the values). 0.12% of 410,000 active. AID 624414; in the data active = activation above about 50%; inconclusive = about 30% to 50%; inactive = below about 30%; note: 0% is about no effect; the text of the record puts the active cut at 80%
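Kinetic FDSS Ca2+ read in Tet-induced TRPML1-DL cells (ABD Ca8 dye plus quencher, 45-90 min RT loading): baseline, then compound, then 110 s agonist window; EC80 agonist 54-4 at 4uM final added afterwards for a 110 s antagonist window.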
TRPML1 blocker: blocks the human TRPML1 channel. Q9GZU1. TRPML1-inducible cells, Ca2+ dye fluorescence, FDSS; active compounds read low; inhibition of EC80 agonist-evoked calcium signal. activity change, negative = inhibition, % (test concentration not listed). 0.02% of 390,000 active. AID 624415; in the data active means activity change below about -50%; inconclusive means about -30% to -50%; inactive means above about -30%;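 note: stimulus is agonist 54-4 at its EC80 concentration; % is set by controls: 0 for no effect and ±100 for the full control effect; compound concentration not given in the record; the text of the record puts the active cut at -80%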
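Calcium fluorescence in TRPML1-DL cells induced overnight with Tet: a 110 s read after compound pin addition, then a 110 s antagonist read after challenge with 54-4 at 4 uM final (EC80).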
TRPV1 PAM: enhances activation of the human vanilloid receptor TRPV1; Q8NER1; TRPV1-expressing cells, Fluo-8 calcium influx, capsaicin EC20 potentiation; host cell line not named in the record; control for the full effect not named in the record; potentiation, % at 8.33 µM; 0.02% of 320,000 active; AID 540277; active means potentiation above 80%; inconclusive means 30% to 80%; inactive means below 30%; note: 0% is about no effect
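TRPV1-expressing cells were cultured overnight at 35.5C and loaded with Fluo-8 calcium dye for 40 to 90 min at room temperature. After a 10 s baseline, compound was added and calcium influx was read kinetically for 3 min (ex 480/em 520 nm).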
D2 PAM: human D2 receptor positive allosteric modulation; DiscoveRx D2 beta-arrestin cells, luminescence, 90 min; 100% = 57 uM dopamine signal; potentiation, % (concentration not given with the values); 0.23% of 360,000 active; active = potentiation of 50% or more; inconclusive = 30% to 50%; inactive = 30% or less;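 note: compound concentration not given in the record; tested on top of an EC20 dose of dopamine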
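PathHunter beta-arrestin assay in DiscoveRx D2 cells. Compounds were added with an EC20 of dopamine (50 nM final) for 90 min at 37 deg C. Luminescence was read 1 h after detection reagent, with 57 uM dopamine as the EC100 control.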
Six1-Eya2 inh: Six1/Eya2 interaction inhibition | AlphaScreen GST-Six1/His-Eya2 binding, biochemical; active compounds read low; control for the full effect not named in the record | activity change, % (concentration not given with the values) | 0.56% of 360,000 active | AID 651725; in the data active = activity change below about -65%; inconclusive = about -30% to -65%; inactive = above about -30%; note: % is set by controls: 0 for no effect and ±100 for the full control effect
Target sequence (O00167 whole entry, looked up): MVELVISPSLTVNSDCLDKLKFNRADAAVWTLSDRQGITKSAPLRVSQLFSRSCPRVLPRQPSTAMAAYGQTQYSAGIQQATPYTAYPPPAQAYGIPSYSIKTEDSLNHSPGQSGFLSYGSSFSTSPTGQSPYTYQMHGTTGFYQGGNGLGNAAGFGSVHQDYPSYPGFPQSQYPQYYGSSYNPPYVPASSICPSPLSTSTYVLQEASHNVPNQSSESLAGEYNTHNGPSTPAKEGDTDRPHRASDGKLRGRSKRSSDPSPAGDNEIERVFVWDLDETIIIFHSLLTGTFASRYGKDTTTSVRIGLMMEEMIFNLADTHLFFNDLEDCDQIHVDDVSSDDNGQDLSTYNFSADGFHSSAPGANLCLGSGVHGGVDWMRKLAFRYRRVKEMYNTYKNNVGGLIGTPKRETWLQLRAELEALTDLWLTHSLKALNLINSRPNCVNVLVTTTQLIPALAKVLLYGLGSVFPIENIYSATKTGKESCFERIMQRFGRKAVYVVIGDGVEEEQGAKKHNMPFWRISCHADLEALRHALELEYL
Target sequence (Q15475 whole entry, looked up): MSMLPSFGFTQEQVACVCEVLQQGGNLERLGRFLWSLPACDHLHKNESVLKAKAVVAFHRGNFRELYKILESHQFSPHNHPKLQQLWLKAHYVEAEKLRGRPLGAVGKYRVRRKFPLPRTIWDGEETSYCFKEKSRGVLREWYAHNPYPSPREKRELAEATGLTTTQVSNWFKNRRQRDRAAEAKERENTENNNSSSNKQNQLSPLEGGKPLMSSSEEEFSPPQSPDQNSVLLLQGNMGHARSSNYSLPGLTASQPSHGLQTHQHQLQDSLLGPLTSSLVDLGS
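AlphaScreen with GST-Six1 and His-Eya2 (5X mix: 250 nM and 500 nM), glutathione donor and nickel acceptor beads; buffer 50 mM Tris pH 8.0, 300 mM NaCl, 1 mM TCEP; 1 h at 37 C in the dark.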
* hit, by the source's call.

Cc1ccc(S(=O)(=O)N(C)CC(=O)N2CCC(C(N)=O)CC2)cc1 was read as CtBP-E1A inh -2, TRPML1 ag 0.6, TRPML1 blocker -7, TRPV1 PAM 0, D2 PAM -2 and Six1-Eya2 inh 8.
Screening COC(=O)C1=C(C)N(CC(C)C)C(=O)C1 returned CtBP-E1A inh 10, TRPML1 ag 0.0, TRPML1 blocker 16, TRPV1 PAM 5, D2 PAM -2 and Six1-Eya2 inh 5.
`O=C(O)c1ccc(NC(=O)c2ccccc2NC(=O)c2ccccc2Br)cc1` gave CtBP-E1A inh 0, TRPML1 ag -1.0, TRPML1 blocker -3, TRPV1 PAM 4, D2 PAM -11 and Six1-Eya2 inh 17.
For FC(F)(F)c1cccc(Cn2cnc(NC(=S)NCCc3ccccc3)n2)c1 the results were TRPML1 ag 2.8, TRPML1 blocker 3, TRPV1 PAM 11, D2 PAM 14 and Six1-Eya2 inh 4.
Screening O=C(CCNC(=O)c1ccc(Cl)cc1)Nc1ncccc1O returned CtBP-E1A inh -28, TRPML1 ag 0.6, TRPML1 blocker -18, TRPV1 PAM 1, D2 PAM -8 and Six1-Eya2 inh -8.
Screening Cn1nnnc1SCC(=O)Nc1nc2ccccc2s1 returned CtBP-E1A inh 19, TRPML1 ag -0.2, TRPML1 blocker -5, TRPV1 PAM 1, D2 PAM -7 and Six1-Eya2 inh 2.
CCOc1ccccc1NC(=O)c1ccc(OCC)c([N+](=O)[O-])c1 was read as CtBP-E1A inh 7, TRPML1 ag 1.8, TRPML1 blocker 49, TRPV1 PAM -3, D2 PAM -8 and Six1-Eya2 inh 9.
For COc1ccc(N(CC(=O)N2CCc3ccccc3C2)S(=O)(=O)c2c(C)nn(C)c2C)cc1 the results were CtBP-E1A inh -17, TRPML1 ag 0.1, TRPML1 blocker 3, D2 PAM -7 and Six1-Eya2 inh 4.
`O=S(=O)(c1ccc(N2CCOCC2)c(Cl)c1)N1CCOCC1` gave CtBP-E1A inh 10, TRPML1 ag 0.4, TRPML1 blocker 0, TRPV1 PAM -2, D2 PAM -5 and Six1-Eya2 inh 6.
For COc1ccccc1OCC(=O)Nc1cc(S(=O)(=O)N2CCOCC2)ccc1N1CCCCC1 the results were CtBP-E1A inh -3, TRPML1 ag 1.5, TRPML1 blocker 21, D2 PAM -12 and Six1-Eya2 inh -6.
`Cc1ccc(S(=O)(=O)NCCn2nc(C)nc2C)cc1` gave CtBP-E1A inh 11, TRPML1 ag 0.8, TRPML1 blocker 22, TRPV1 PAM 4, D2 PAM 2 and Six1-Eya2 inh 7.
`CNC(=O)c1cc(S(=O)(=O)Nc2ccc3c(c2)OCO3)ccc1C` gave CtBP-E1A inh 4, TRPML1 ag 0.1, TRPML1 blocker -13, TRPV1 PAM 9, D2 PAM -7 and Six1-Eya2 inh 11.
CSCCC(NC(N)=O)C(=O)NCc1ccccc1Cl (stereo not given) was read as CtBP-E1A inh 2, TRPML1 ag -0.2, TRPML1 blocker -7, TRPV1 PAM inconclusive, D2 PAM -29 and Six1-Eya2 inh 4.
Screening Nc1ccccc1S(=O)(=O)NC1=NCCCCC1 returned CtBP-E1A inh -13, TRPML1 ag -0.2, TRPML1 blocker -7, TRPV1 PAM -1, D2 PAM -3 and Six1-Eya2 inh 5.
For COC(=O)CCN1CCC2CC1c1cc(-c3cccc(C)c3)ccc12 (stereo not given) the results were CtBP-E1A inh -12, TRPML1 ag -0.5, TRPML1 blocker -12 and Six1-Eya2 inh -4.
`COc1ccc(C2NC(c3ccc(OC)cc3)C(c3ccccc3)C(=O)C2c2ccccc2)cc1` (stereo not given) gave CtBP-E1A inh -26, TRPML1 ag 0.3, TRPML1 blocker -8, TRPV1 PAM -30, D2 PAM -8 and Six1-Eya2 inh -14.
Screening O=C(CNC(=O)Cc1ccccc1)NCC(=O)N1CCN(C(c2ccccc2)c2ccccc2)CC1 returned TRPML1 ag 0.4, TRPML1 blocker -3, TRPV1 PAM -1, D2 PAM 0 and Six1-Eya2 inh -1.
O=C(O)c1ccc(NC2=C(N3CCOCC3)C(=O)c3ccccc3C2=O)cc1 was read as CtBP-E1A inh 6, TRPML1 ag 2.4, TRPML1 blocker 10, TRPV1 PAM 11, D2 PAM 16 and Six1-Eya2 inh 3.
Screening COc1ccc(CN2CCNC(=O)C2CC(=O)NC2CCOCC2)c(F)c1 (stereo not given) returned CtBP-E1A inh 8, TRPML1 ag -0.1, TRPML1 blocker -2, TRPV1 PAM 8, D2 PAM -21 and Six1-Eya2 inh 3.
`O=[N+]([O-])c1ccc2c(c1)oc1ccccc12` gave CtBP-E1A inh -6, TRPML1 ag 0.2, TRPML1 blocker 18, TRPV1 PAM -8, D2 PAM -3 and Six1-Eya2 inh -6.
`CCOc1ccc(S(=O)(=O)NCCC(=O)NCc2ccco2)cc1` gave CtBP-E1A inh 1, TRPML1 ag -1.0, TRPML1 blocker 0, TRPV1 PAM 28, D2 PAM -20 and Six1-Eya2 inh -3.
For CC(C)(Oc1ccc(Cl)cc1)C(=O)OCC(=O)Nc1ncc(Cl)cc1Cl the results were CtBP-E1A inh 10, TRPML1 ag 0.0, TRPML1 blocker 11, TRPV1 PAM -14, D2 PAM -8 and Six1-Eya2 inh 4.
For C/C=C(\C)C(=O)N[C@@H](C)CN1C2=NC[C@H](C(C)C)N2C[C@H]1Cc1ccc(OC)cc1 the results were CtBP-E1A inh 0, TRPML1 ag 2.5, TRPML1 blocker 24, TRPV1 PAM -25, D2 PAM -5 and Six1-Eya2 inh 0.
COCC(=O)N1CCC(Oc2cccc(C(=O)NCc3ccccn3)c2)CC1 was read as CtBP-E1A inh 0, TRPML1 ag -0.3, TRPML1 blocker 13, TRPV1 PAM 15, D2 PAM 11 and Six1-Eya2 inh -2.
Screening COc1ccc(N(C)S(=O)(=O)c2cccc(C(=O)OCC(=O)c3c(N)n(C)c(=O)n(C)c3=O)c2)cc1 returned CtBP-E1A inh -7, TRPML1 ag -0.2, TRPML1 blocker 0, D2 PAM 29 and Six1-Eya2 inh -20.
For O=C(Nc1cccnc1)c1ccc(Cl)c(S(=O)(=O)N2CCCCC2)c1 the results were CtBP-E1A inh -8, TRPML1 ag -0.5, TRPML1 blocker 8, TRPV1 PAM -11, D2 PAM -5 and Six1-Eya2 inh -2.
COc1cccc(NC(=O)COc2ccc3c(c2)CCC3)c1 was read as CtBP-E1A inh 11, TRPML1 ag 0.3, TRPML1 blocker 22, TRPV1 PAM -22, D2 PAM -4 and Six1-Eya2 inh 7.
`COCCn1c(SCC(=O)Nc2ccccc2)nc2c1c(=O)[nH]c(=O)n2C` gave CtBP-E1A inh 0, TRPML1 ag -0.4, TRPML1 blocker -10, TRPV1 PAM -1, D2 PAM -3 and Six1-Eya2 inh 3.
Screening COc1ccc(CNC(=O)c2cc(C3CC3)on2)cc1 returned CtBP-E1A inh 1, TRPML1 ag -0.2, TRPML1 blocker -9, D2 PAM -5 and Six1-Eya2 inh 17.
Screening O=C(CCOc1ccccc1)Nc1ccnn1C1CCN(Cc2ccc(O)cc2)CC1 returned CtBP-E1A inh 0, TRPML1 ag -0.2, TRPML1 blocker -17, TRPV1 PAM 10, D2 PAM -15 and Six1-Eya2 inh -4.
Screening COc1ccc(N=Cc2c(O)c3ccccc3oc2=O)cc1 returned CtBP-E1A inh 7, TRPML1 ag 0.9, TRPML1 blocker 24, TRPV1 PAM -8, D2 PAM 0 and Six1-Eya2 inh 3.
For CCC1CCCCN1C(=O)CSc1nnc(CNC(=O)c2cc(OC)c(OC)c(OC)c2)o1 (stereo not given) the results were CtBP-E1A inh -2, TRPML1 ag 2.2, TRPML1 blocker -2, TRPV1 PAM 2, D2 PAM -3 and Six1-Eya2 inh 0.
For C=CCn1c(SCC(=O)N(CC)C2CCS(=O)(=O)C2)nc2sc3c(c2c1=O)CCC3 (stereo not given) the results were CtBP-E1A inh 6, TRPML1 ag 1.3, TRPML1 blocker 6, TRPV1 PAM -1, D2 PAM -2 and Six1-Eya2 inh 2.
`O=C(NC(Cc1ccccc1)C(=O)O)OCC1c2ccccc2-c2ccccc21` (stereo not given) gave CtBP-E1A inh 0, TRPML1 ag 1.5, TRPML1 blocker -4, TRPV1 PAM 28, D2 PAM -2 and Six1-Eya2 inh -18.
COc1ccccc1Cc1c(-c2ccc(Cl)cc2)nc2c(C)cc(Br)cn12 was read as CtBP-E1A inh 2, TRPML1 ag 0.1, TRPML1 blocker 38, D2 PAM -9 and Six1-Eya2 inh 1.
For Cc1cccc(-c2nc(CS(=O)CC(=O)NC(C)CCc3ccccc3)c(C)o2)c1 (stereo not given) the results were CtBP-E1A inh -16, TRPML1 ag 1.5, TRPML1 blocker 29, TRPV1 PAM -18, D2 PAM -8 and Six1-Eya2 inh -1.
`Cc1ccc(S(=O)(=O)/N=C/c2cc(Br)ccc2O)cc1` gave CtBP-E1A inh -16, TRPML1 ag -0.6, TRPML1 blocker -9, TRPV1 PAM -13, D2 PAM -11 and Six1-Eya2 inh -1.
For O=C(Nc1ccc(N2CCOCC2)cc1)C1CC1 the results were CtBP-E1A inh 7, TRPML1 ag 1.3, TRPML1 blocker -17, TRPV1 PAM 28, D2 PAM 1 and Six1-Eya2 inh 3.
Screening Cc1ccc(SCc2cc(=O)[nH]c(N3CCOCC3)n2)cc1 returned CtBP-E1A inh 23, TRPML1 ag 0.3, TRPML1 blocker -3, TRPV1 PAM 0, D2 PAM 6 and Six1-Eya2 inh 22.
